Assay outcomes (PubChem BioAssay)
VCAM-1 rise: enhancers of VCAM-1 display on endothelial cells, cell-based, plate reader, pooled HUVEC, TNFa stimulus (AID 455) | HUVEC TNFa-induced VCAM-1 immunofluorescence, plate reader; numbers were filed only for top-ranked candidate wells | augmentation, % at 5 µM | 10,000 tested, 0.2% active;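 active = a compound raising TNF-alpha-driven VCAM-1 surface staining, with its hit status upheld on visual or statistical review; inactive = the rest, including hits rejected on review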;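 note: 0% = TNFa with vehicle and 100% = strongest image-checked hit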
26S disassembly: inhibitors of ATP-driven 26S proteasome dissociation, primary screen, biochemical, bead-based flow cytometry, GFP-tagged proteasome; anti-FLAG beads, GFP-proteasome disassembly; inhibition of disassembly, % (concentration not given with the values); 24,000 tested, 0.2% active;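 active = above 40%; inconclusive = likely self-fluorescent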;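 note: plate controls were ATP control with full disassembly for no effect and ATP-gamma-S intact proteasomes for full effect; higher percent means more bead fluorescence retained so stronger block of disassembly; stock transfer was 100 nL into about 10 µL; wells with too few beads may also be inconclusive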
Starred values were filed as active, the others as inactive; i = inactive; ? = inconclusive; nt = no result given. Only part of the results is shown; the hit share may differ from the screen's.

Under each structure – VCAM-1 rise	26S disassembly
- CCC(C)OC(=O)n1ccc(C(=O)Nc2nccs2)n1 (configuration not stated)
  i	0.9
- CCCCCCn1c(SCCCC)nc2c1c(=O)[nH]c(=O)n2C
  i	1.3
- COC(=O)CSCc1nc2ccccc2[nH]c1=O
  nt	1.0
- c1ccc(CCc2nc(-c3cccnc3)no2)cc1
  i	-0.9
- O=C(C(Cc1ccccc1)n1cccc1)N1CCCCC1 (configuration not stated)
  nt	-0.2
- Cc1nc2ncnn2c(C)c1CCC(=O)N1CCc2ccccc21
  nt	2.4
- CCCCSc1nc(CCC)cc(=O)[nH]1
  i	1.1
- CCOC(=O)N1CCN(C(=O)CSCC(=O)N=c2sc3ccccc3n2C)CC1
  nt	-0.2
- Cc1ccc(NS(=O)(=O)c2ccc3c(c2)oc(=O)n3C)cc1F
  nt	-0.8
- COc1ccc(C(=O)NCCC(C)C)cc1S(=O)(=O)N1CCOCC1
  i	-0.5
- Cc1oc(-c2cccs2)[n+]([O-])c1C
  nt	-1.7
- COC(=O)Cn1nc(-c2ccccc2)c2ccccc21
  nt	-0.1
- O=C(O)[C@H](Cc1ccccc1)N1Cc2ccccc2C1=O
  nt	-4.8
- CC(C)c1ccc(O)c(NC(=O)c2cncc(Br)c2)c1
  nt	1.2
- CCCN(CCC)C(=O)CSc1nc2n[nH]c(C)c2c(=N)n1-c1ccc(OC)cc1
  nt	0.2
- CCSc1nnc(NC(=O)CSc2nnc(Cc3cccn3C)n2CCc2ccccc2)s1
  nt	-0.8
- CCOc1ccc(-n2c(SC)nc3c(c2=O)SCC3)cc1
  nt	2.9
- CC12C=CC3(CN(Cc4ccccc4)C(=O)C3C1C(=O)NCc1ccco1)O2 (configuration not stated)
  nt	1.0
- CN(Cc1ccco1)C(=O)C(Cc1ccccc1)NS(=O)(=O)c1ccc2c(c1)CCC(=O)N2 (configuration not stated)
  nt	-1.8
- COc1ccc(Cn2c(=O)[nH]c3cc(C(=O)NCCCN4CCCC4=O)ccc3c2=O)cc1
  nt	1.1
- COc1ccc(CNC(=O)C2CCN(S(=O)(=O)N3CCOCC3)CC2)cc1
  nt	-1.2
- COc1ccc(CCNC(=O)C2CCCCC2C(=O)O)cc1OC (configuration not stated)
  nt	1.4
- Cc1ccc(C)c2[nH]c(=O)c(CN(CCN3CCCC3)C(=O)Nc3cccc(Cl)c3)cc12
  i	?
- O=C(C1CCC1)N1CCc2cc(S(=O)(=O)N3CCCCC3)ccc21
  nt	-1.4
- Cc1ccc(-n2nnnc2SCC(=O)Nc2c(C)n(C)n(-c3ccccc3)c2=O)cc1
  i	0.6
- CCCn1c(O)c(CN2CCCC(C)C2)c(C)c(C#N)c1=O (configuration not stated)
  i	0.6
- COc1ccc(C2C3=C(CCCC3=O)Nc3nc(SCc4ccc(C(=O)O)cc4)nn32)cc1OC (configuration not stated)
  nt	0.1
- O=C(NCCN1CCN(c2ccccc2)CC1)C1(S(=O)(=O)c2ccc(Cl)cc2)CC1
  nt	-1.8
- Cc1ccc(NC(=O)C2CCCN2S(=O)(=O)c2ccc3c(c2)CCC(=O)N3)cc1Cl (configuration not stated)
  nt	0.3
- CCOC(=O)CSc1nnc(CNC(=O)c2ccc(OC)cc2)n1C1CCCCC1
  nt	-0.9
- Cc1cc(C)n(Cc2cc(C)c(Cn3nc(C)cc3C)cc2C)n1
  i	-3.4
- COc1cc2c(cc1OC)C(COc1ccc(F)cc1)N(C(=O)c1ccco1)CC2 (configuration not stated)
  nt	1.3
- O=C(Nc1ccccc1)N1CCN(Cc2ccc3c(c2)OCO3)CC1
  nt	0.0
- CCN1CCN(CCNC(=O)CS(=O)(=O)Cc2nc(-c3ccc(C)cc3)oc2C)CC1
  nt	-0.6
- CC1(C)CC(=O)C2=C(C1)Nc1ccccc1N=C2
  29	1.1
- CC1(C)C(=O)OC(c2cccs2)C(C)(C)C1=O (configuration not stated)
  nt	-0.4
- CC1(C)CC(OC(=O)c2ccco2)CC(C)(C)N1O
  nt	-0.3
- CCOC(=O)CN1CC23C=CC(O2)C(C(=O)NCc2cccs2)C3C1=O (configuration not stated)
  nt	0.1
- O=C(CSc1nc2ccccc2[nH]1)c1ccc2c(c1)OCO2
  i	2.9
- N#CC1=C(N)Oc2n[nH]c(-c3ccc(F)cc3)c2C1c1ccncc1 (configuration not stated)
  nt	-0.8
- COc1ccc2cc3cc(C(=O)NCc4ccc5c(c4)OCO5)oc3nc2c1
  nt	1.6
- CCCc1nnc(NC(=O)CCC(=O)N2CCN(CCOc3ccc(C)cc3)CC2)s1
  i	1.1
- COC(=O)c1cn(NC(=O)C2COc3ccccc3O2)c(=O)c2ccccc12 (configuration not stated)
  nt	-0.9
- O=C1Nc2ccccc2C(O)(C(=O)NCc2ccco2)N1c1ccc(Cl)c(Cl)c1 (configuration not stated)
  nt	23
- CCOc1ccc(CN2C(=O)c3ccccc3C2C(=O)NCc2cccnc2)cc1 (configuration not stated)
  i	0.7
- CCOc1ccc(N(CC(=O)NCc2ccccc2)S(=O)(=O)c2c(C)noc2C)cc1
  nt	2.2
- CC(=O)NC(CCS(C)(=O)=O)C(=O)Nc1c(F)cccc1F (configuration not stated)
  nt	1.9
- COc1cc2[nH]c(=O)n(CCCC(=O)N3CC=C(c4ccccc4)CC3)c(=O)c2cc1OC
  nt	-0.8
- Cc1cc(C(=O)OCC(=O)N2c3ccccc3CC2C)c(C)o1 (configuration not stated)
  i	-1.0
- CC(=O)N1CCC(N(CCN2CCOCC2)C(=O)Nc2ccc(Cl)c(Cl)c2)CC1
  nt	0.4
- Cc1cc(OCC(=O)N2CCCC2)cc(C)c1Cl
  i	0.1
- CC(NC(=O)CCNS(=O)(=O)c1ccc2c(c1)c(=O)n(C)c(=O)n2C)c1ccccc1 (configuration not stated)
  nt	-2.3
- Cn1c(=O)c(=O)n(C)c2cc(S(=O)(=O)N3CCCCCC3)ccc21
  nt	-3.0
- OCCN1CCN(CC(O)COc2ccc3ccccc3c2)CC1 (configuration not stated)
  i	0.4
- COc1ccc(OCCOC(=O)c2cccc(-n3cnnn3)c2)cc1
  i	1.5
- CC(=O)N1CCN(S(=O)(=O)c2ccc(S(=O)(=O)NC3CC3)cc2)CC1
  i	-1.0
- COc1cc(NC(=O)C2CCCN(S(=O)(=O)c3cnc[nH]3)C2)cc(OC)c1 (configuration not stated)
  nt	-2.0
- Cc1[nH]nc(-c2ccc(O)c(C)c2O)c1-c1cnn(-c2ccccc2)c1
  i	1.4
- CN(C)[C@@H]1C(=O)C(C(N)=O)=C(O)[C@@]2(O)C(=O)C3=C(O)c4c(O)ccc(Cl)c4[C@@H](O)[C@H]3C[C@@H]12
  i	-0.4
- CC(C)CCNC(=O)C1CCN(S(=O)(=O)c2ccc3c(c2)CCC(=O)N3)CC1
  nt	-0.9

Taken from above, 2 compounds:
Under each structure – VCAM-1 rise	26S disassembly
- CCC(C)OC(=O)n1ccc(C(=O)Nc2nccs2)n1 (configuration not stated)
  i	0.9
- CCCCCCn1c(SCCCC)nc2c1c(=O)[nH]c(=O)n2C
  i	1.3

Following part.
Under each structure – VCAM-1 rise	26S disassembly
- CCOc1cc(S(=O)(=O)N2CCC(Cc3ccccc3)CC2)c(OCC)cc1-n1cnnn1
  i	-0.4
- CCN1C(=O)NC(c2cc(Br)ccc2OC)C(C(=O)OC)=C1C (configuration not stated)
  i	-0.1
- CCN(CC)CCNC(=O)c1cc2c(-c3ccc(Cl)cc3)nn(C)c2s1
  nt	1.3
- CCC(OC(=O)c1cccs1)C(=O)NCc1ccco1 (configuration not stated)
  i	-0.8
- O=C(CN1C(=O)c2cccc3cccc1c23)Nc1ccccc1C(=O)NCc1ccco1
  i	-0.7
- CCOC(=O)Cc1nnc(NC(=O)CSc2nnc3c4ccccc4n(C(C)C)c3n2)s1
  i	-0.5
- Cc1cc(Nc2ccc(C)c(Br)c2)n2nc(C)nc2n1
  nt	11
- C[C@H](CS)C(=O)N1CCC[C@H]1C(=O)O
  i	0.8
- C=CCNC(=O)CN(c1cccc(Br)c1)S(C)(=O)=O
  i	-1.3
- Cc1cc(C)n2cc(CSc3nnnn3C)nc2n1
  i	0.2
- O=C(O)c1ccc(COc2ccc3c4c(c(=O)oc3c2)CCC4)o1
  nt	-1.4
- COc1ccc(NC(=O)CSc2nc3c(c(=O)n2-c2ccccc2)SCC3)c(OC)c1
  nt	-1.4
- CCOCCCNC(=O)c1ccc2c(c1)ncn2C1CCCC1
  i	-1.1
- Cc1cccc(C2CC(c3ccc(Cl)cc3)Nc3nc(N)nn32)c1 (configuration not stated)
  i	-0.6
- COc1ccccc1-c1nnc(Nc2nc3c(OC)cccc3s2)o1
  nt	5.2
- O=C(Cn1cnc2c(nnn2Cc2ccc(Cl)cc2)c1=O)NC1CCCC1
  nt	-0.8
- O=C(NCc1cccs1)C1CCN(S(=O)(=O)c2cccc3cccnc23)CC1
  nt	-0.7
- CCCCNC(=O)C(C#N)c1nc2ccccc2nc1N1CCCC1 (configuration not stated)
  i	2.2
- Cc1cccc(C)c1-n1nnnc1SCSc1nnnn1-c1c(C)cccc1C
  i	-1.2
- CCOC(=O)N1CCN(c2c(N3CCOCC3)c(=O)c2=O)CC1
  nt	-0.5

Sorted by number of heavy atoms (largest number first): some entries from above
Under each structure – VCAM-1 rise	26S disassembly
- COc1ccc(NC(=O)CSc2nc3c(c(=O)n2-c2ccccc2)SCC3)c(OC)c1
  nt	-1.4
- O=C(NCc1cccs1)C1CCN(S(=O)(=O)c2cccc3cccnc23)CC1
  nt	-0.7
- Cc1cc(Nc2ccc(C)c(Br)c2)n2nc(C)nc2n1
  nt	11

Next results follow.
Under each structure – VCAM-1 rise	26S disassembly
- O=C(Nc1cccc(F)c1)C1C2C=CC3(CN(CCCN4CCOCC4)C(=O)C13)O2 (configuration not stated)
  i	0.4
- CCOc1ccc2nc(SCc3ccc(C(=O)OC)o3)[nH]c2c1
  i	-1.9
- COc1ccc(N(C(=O)COc2ccccc2)C2C=CS(=O)(=O)C2)c(OC)c1 (configuration not stated)
  nt	0.8
- COc1ccc(NC(=O)C2CCCN(S(=O)(=O)c3cccc4cccnc34)C2)cc1OC (configuration not stated)
  i	-1.1
- O=S1(=O)CCN2C(=N1)SC1=C2CCN(Cc2ccccc2)C1
  i	-1.8
- CC(=O)Nc1ccc(S(=O)(=O)NCc2ccc(C(=O)NCCN3CCCCCC3)cc2)cc1
  nt	1.7
- CCN(CC)S(=O)(=O)c1ccc(F)c(C(=O)NCCCN2CCOCC2)c1
  nt	0.9
- O=C(O)CCc1ccc(-c2cccs2)n1NC(=O)c1ccco1
  i	-1.4
- COc1ccc(OC)c(C2=NOC(C(=O)Nc3cccnc3)C2)c1 (configuration not stated)
  i	-0.1
- CCOC(=O)c1ccccc1NC1c2ccccc2C(=O)N1C1CCN(C(=O)OCC)CC1 (configuration not stated)
  i	0.0
- COC(=O)c1c(C#N)c(N)nc2c1CCC2
  i	0.9
- COc1ccc(S(=O)(=O)N2CCN(Cc3ccc4c(c3)OCO4)CC2)c2ccccc12
  nt	1.5
- Cn1c(C(=O)NCc2ccccn2)cc2c(=O)n(C)c3ccccc3c21
  nt	-1.1
- CCN1CCN(Cc2nc3c(c(=O)n(C)c(=O)n3C)n2CC(=O)c2ccccc2)CC1
  i	0.5
- COCCNC(=O)CSc1nc2ccccc2c(=O)n1CCCC(=O)NCc1ccccc1
  nt	-0.6
- Cc1c(C(=O)OC2CCCC2C)[nH]c2c1C(=O)CCC2 (configuration not stated)
  nt	-0.8
- CC(C)(C)C1CCc2[nH]nc(C(=O)O)c2C1 (configuration not stated)
  i	0.2
- COCCNc1nc(SCC(=O)N2CCN(c3ccccc3OC)CC2)nc2ccccc12
  nt	-2.1
- O=C(CCS(=O)(=O)c1cccc2nonc12)Nc1cccc2c1CCCC2
  i	-0.7
- O=C(C1CCN(S(=O)(=O)N2CCOCC2)CC1)N1CCc2ccccc21
  nt	-0.7
- O=C1c2cccnc2C(=O)N1CO
  nt	0.6
- Fc1cccc(-c2cc3nc4c(c(N5CCN(c6cnccn6)CC5)n3n2)CCCC4)c1
  i	-1.3
- CS(=O)(=O)NCc1nnc(SCC(=O)NC2CCCCC2)n1-c1ccc(F)cc1
  i	-0.6
- CCOC(=O)CSc1nc2nc(C)cc(C)n2n1
  nt	2.8
- Cc1ccc(NC(=O)c2ccco2)c(NC(=O)CN2C(=O)c3ccccc3C2=O)c1
  i	-3.6
- COc1cc([C@@H]2[C@H]3CN(C)CC=C3C(C#N)=C(N)C2(C#N)C#N)cc2c1OCO2
  i	2.9
- O=C(Nn1cnc2ccccc2c1=O)c1ccccc1Cl
  nt	0.5
- COc1ccc(C2CC(c3ccc(F)cc3)Nc3nc(N)nn32)cc1OC (configuration not stated)
  nt	1.2
- COCCCNC(=O)c1ccc(CS(=O)(=O)c2ccc(OC)cc2)o1
  i	0.1
- Cc1csc(NC(=O)CNS(=O)(=O)c2cccs2)n1
  nt	-2.1
- Cc1ccc(C)c2[nH]c(=O)c(CCNC(=O)c3ccc4c(c3)OCO4)cc12
  nt	-1.5
- CCC(=O)N1CCc2cc(Br)cc(S(=O)(=O)CCC(=O)NCc3ccco3)c21
  nt	-0.7
- O=C(NCc1cccnc1)c1cc(-c2ccco2)on1
  nt	-0.8
- Cc1ccc(C(=O)N(CN2CCCC2=O)c2ccc(F)cc2)cc1C
  nt	0.0
- O=C(Nc1ccc2c(c1)OCO2)c1cc2ncc(Br)cn2n1
  i	-0.3
- COC(=O)C1=C(C)Nc2nc(-c3ccccc3)nn2C1c1ccc(C)o1 (configuration not stated)
  nt	-0.5
